Compound activity: PubChem BioAssay, Southern Research Institute
Mtb growth: Confirmatory growth inhibition assay against Mycobacterium tuberculosis H37Rv, potency (AID 1949) | 1.6% of 100,000 active | most inactive calls were filed without a number and no value below 0 was filed | inhibition, % at 10 µg/mL; hits with a dose series show IC50 in µg/mL;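 active means confirmed in a dose series; inconclusive means about 50% or more but not retested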;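 further: bacteria grown 7 days with compound before Alamar blue readout; 0% = untreated bacteria and 100% = reference antibiotic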
An asterisk follows results filed as active; i = inactive; ? = inconclusive. A portion of the library, so the mix of outcomes need not match the whole.

Preview:
SMILES	Mtb growth
CN(C(=O)c1cc2n(n1)C(C(F)(F)F)CC(c1cccs1)N2)C1CCCCC1 (stereo not given)	i
COc1ccc(NS(=O)(=O)c2ccc(NC(=O)c3ccc(N(C)S(C)(=O)=O)cc3)cc2)cc1	i
COc1ccc(C2CC(=O)n3nc(-c4cccc(C)c4)nc3S2)cc1 (stereo not given)	i
O=C(CCC(=O)NNC(=O)NC1CCCCC1)NCc1ccccc1	i
CN(C)S(=O)(=O)c1ccc2c(c1)oc(=O)c1cc(S(=O)(=O)N(C)C)ccc12	i
CCCn1nnnc1NC(=O)COc1ccc(Cl)c(C)c1	46%
Cc1ccc(-n2c(-c3ccc(C(C)(C)C)cc3)n[nH]c2=S)cc1C	33%
O=C(NCc1ccc(Cl)cc1)c1cnccn1	i
O=C(NC1CCCCC1)c1ccccc1NC(=O)C(F)(F)F	3%
CCCCC(=O)Nc1ccc(C(=O)Nc2nc(C)cs2)cc1	i
Cc1cc(Cl)ccc1OCCCC(=O)Nc1nnc(CC(C)(C)C)s1	i
COc1cccc(/C=C(/C#N)c2cccc(F)c2)c1OC(C)C	4%
COC(=O)CN(n1cnnc1)S(=O)(=O)c1ccc(C)cc1	i
CCCCC(=O)Nc1ccc(NC(=O)c2ccc(OCC)c(Br)c2)cc1OC	i
Cc1ccccc1Nc1nnc(-c2cc3cc(Cl)ccc3oc2=O)s1	i
CC(=O)Nc1nnc(-c2ccc(Cl)cc2)s1	i
CCc1ccc(S(=O)(=O)Nc2ccc(F)cc2)cc1	i
O=C(Nc1ccc(F)cc1)c1sc2cc(Cl)ccc2c1Cl	i
CC(=O)Nc1ccc(C)c(I)c1	i

All compounds of this part, from the start:
SMILES	Mtb growth
CN(C(=O)c1cc2n(n1)C(C(F)(F)F)CC(c1cccs1)N2)C1CCCCC1 (stereo not given)	i
COc1ccc(NS(=O)(=O)c2ccc(NC(=O)c3ccc(N(C)S(C)(=O)=O)cc3)cc2)cc1	i
COc1ccc(C2CC(=O)n3nc(-c4cccc(C)c4)nc3S2)cc1 (stereo not given)	i
O=C(CCC(=O)NNC(=O)NC1CCCCC1)NCc1ccccc1	i
CN(C)S(=O)(=O)c1ccc2c(c1)oc(=O)c1cc(S(=O)(=O)N(C)C)ccc12	i
CCCn1nnnc1NC(=O)COc1ccc(Cl)c(C)c1	46%
Cc1ccc(-n2c(-c3ccc(C(C)(C)C)cc3)n[nH]c2=S)cc1C	33%
O=C(NCc1ccc(Cl)cc1)c1cnccn1	i
O=C(NC1CCCCC1)c1ccccc1NC(=O)C(F)(F)F	3%
CCCCC(=O)Nc1ccc(C(=O)Nc2nc(C)cs2)cc1	i
Cc1cc(Cl)ccc1OCCCC(=O)Nc1nnc(CC(C)(C)C)s1	i
COc1cccc(/C=C(/C#N)c2cccc(F)c2)c1OC(C)C	4%
COC(=O)CN(n1cnnc1)S(=O)(=O)c1ccc(C)cc1	i
CCCCC(=O)Nc1ccc(NC(=O)c2ccc(OCC)c(Br)c2)cc1OC	i
Cc1ccccc1Nc1nnc(-c2cc3cc(Cl)ccc3oc2=O)s1	i
CC(=O)Nc1nnc(-c2ccc(Cl)cc2)s1	i
CCc1ccc(S(=O)(=O)Nc2ccc(F)cc2)cc1	i
O=C(Nc1ccc(F)cc1)c1sc2cc(Cl)ccc2c1Cl	i
CC(=O)Nc1ccc(C)c(I)c1	i
O=C(C1CCCN(CCCc2ccccc2)C1)N1CCCC1 (stereo not given)	i
C#CCSc1nc(C)c2c(n1)CCCC2	i
Nc1ncnc2nc(Sc3c([N+](=O)[O-])cc(Br)c4nsnc34)[nH]c12	i
Cc1c(Cl)ccc(S(=O)(=O)N2CCN(c3ccccc3F)CC2)c1Cl	2%
Cc1cc2nc(-c3cc(NC(=O)c4cccs4)ccc3Cl)oc2cc1C	35%
CCC(=O)Nc1ccc(Cl)c(OC)c1	i
O=C(Oc1ccc(Cl)cc1C(=S)N1CCOCC1)c1cccc([N+](=O)[O-])c1	i
CC(C)(C)c1ccc(C(=O)NCC2COc3ccccc3O2)cc1 (stereo not given)	4%
CCc1ccc(OCC(=O)Nc2sc3c(c2C(N)=O)CCCC3)c(Br)c1	i
COC(=O)c1ccc(NC(=O)CN(c2ccc(F)cc2)S(=O)(=O)c2ccc(OC)c(OC)c2)cc1	i
Cc1ccc(C(C)C)cc1OCCCNCCN(C)C	?
O=C(NCCc1ccccc1Cl)C(=O)NC1CC1	i
COc1cc(CNc2ccc(O)cc2)cc(Br)c1OCc1ccccc1	i
CC(=O)Nc1cccc(NC(=O)C(F)(F)F)c1	i
Cc1ccc(OCC(=O)Oc2ccc3oc(=O)cc(C)c3c2)c(C)c1	i
O=C(Nc1ccc(Cc2ccncc2)cc1)c1ccc(-c2cccc(C(F)(F)F)c2)o1	12µg/mL*
Cc1c(Cl)cccc1NC(=O)C(C)N(c1ccc(Oc2ccccc2)cc1)S(C)(=O)=O (stereo not given)	i
O=C(C1CCN(S(=O)(=O)c2ccccc2)CC1)N1CCc2ccccc2C1	i
COc1cc(OC)c(C(=O)NNC(=O)Nc2ccc(Br)cc2)cc1OC	i
Cc1cc(C)cc(N(CC(=O)Nc2ccc(F)cc2)S(=O)(=O)c2ccccc2)c1	i
CN(c1ccc(C(=O)NCCSCc2ccco2)cc1)S(C)(=O)=O	i
COc1ccc(NC(=O)C2=C(C)NC(=S)NC2c2ccccc2C)c(OC)c1 (stereo not given)	i
CN(c1ccc(C(=O)Nc2ccccc2C(=O)NCc2ccco2)cc1)S(=O)(=O)c1ccccc1	i
Cc1sc2ncn(CC(=O)N3CCCCC3)c(=O)c2c1-c1ccccc1	i
Cc1ccc2cc(S(=O)(=O)NCCC(=O)O)ccc2c1	i
O=C(NCC1CCCO1)/C(=C\c1cccs1)NC(=O)c1ccccc1 (stereo not given)	1%
COc1ccc(NC(=O)Nc2ccc(C(C)=O)cc2)cc1OC	i
COc1ccc(Br)cc1S(=O)(=O)NCC1CCCO1 (stereo not given)	i
O=C(Nc1cccc2ccccc12)N1CCN(c2ccc(F)cc2)CC1	i
CN(C)CCNC(CC(=O)Nc1ccc(Cl)c(Cl)c1)C(=O)O (stereo not given)	i
CCN(CC)C(=O)Cc1ccc(C)cc1	i
(continued)
SMILES	Mtb growth
CC(C)NC(=S)NC(=O)c1cccnc1	i
COc1cc(S(=O)(=O)NCc2ccccc2)ccc1F	i
COc1ccc(CC(=O)Nc2ccccc2C(F)(F)F)cc1OC	i
Cc1ccc(C(C)(C)C)c(OCCOCCN(C)C)c1	5%
CC1CCN(C(=O)CN(c2ccccc2Cl)S(C)(=O)=O)CC1	i
CN1CCN(C(=O)C23CCC(C)(C(=O)C2)C3(C)C)CC1 (stereo not given)	14%
S=C(Nc1ccccc1)NC1CCCCC1NC(=S)Nc1ccccc1 (stereo not given)	i
CN(c1ccccc1)S(=O)(=O)c1ccc(Oc2ccccc2)cc1	i
COc1ccc(OC)c(NC(=O)CN(c2cccc([N+](=O)[O-])c2)S(C)(=O)=O)c1	3%
O=C(C1CCCO1)N1CCN(S(=O)(=O)c2ccccc2)CC1 (stereo not given)	i
O=c1nc(-c2ccccc2)c2cc(Cl)ccc2[nH]1	i
COc1cccc(CNCCc2cccc(Cl)c2)c1OC	i
COc1ccc(S(=O)(=O)Nc2ccc(C)c(C)c2)cc1Br	i
CCc1nc2sc(C(=O)Nc3ccc(OC(F)(F)F)cc3)c(N)c2cc1C	i
CCn1cc(C(=O)O)c(=O)c2cc(Br)ccc21	21%
CCc1c(C)nc(Nc2nc(C)c3ccc(OC)cc3n2)[nH]c1=O	6%
O=C(O)C1(NS(=O)(=O)c2ccc(Cl)cc2)CCCCC1	i
Cc1ccc2c(Cl)c(C(=O)Nc3ccc(S(=O)(=O)Nc4cc(C)nc(C)n4)cc3)sc2c1	i
CCc1ccc(NC2=NS(=O)(=O)c3ccccc32)cc1	i
CN(C)CCNCCOCCOc1cccc(C(F)(F)F)c1	20%
COc1ccc(Cl)cc1Nc1ncnc2ccccc12	1%
COc1ccc(-n2c(SC)nc3sc4c(c3c2=O)CCCC4)cc1	i
NC(=O)Cn1nnc(-c2ccccc2F)n1	i
CCOC(=O)c1c(C(C)(C)C)oc2ccc(OCC#N)cc12	i
O=C(c1ccc(Cl)cc1)N1CCN(C2=NS(=O)(=O)c3ccccc32)CC1	i
CCCCNS(=O)(=O)c1ccc(NC(=O)c2ccc([N+](=O)[O-])cc2)cc1	i
COC(=O)c1sccc1NC(=S)Nc1ccc(Br)cc1Cl	i
COc1ccc(CCc2ncccc2O)cc1S(=O)(=O)O	0%
CN(C(=O)c1cccc(S(=O)(=O)N(C)C)c1)c1ccccc1	i
COc1ccccc1-c1nnc(SCC(=O)Nc2nc(-c3ccccc3)cs2)o1	i
Cc1ccc(S(=O)(=O)N(CC(=O)Nc2cccc([N+](=O)[O-])c2)Cc2ccc(Cl)cc2)cc1	i
O=C(CSc1nnc(-c2cccnc2)n1-c1ccccc1)c1c[nH]c2ccccc12	3%
CN(C)c1nc(N(C)C)nc(N(C#N)CCOc2ccccc2)n1	i
Cc1cccc(C(=O)Nc2nc(-c3ccc(Br)cc3)cs2)c1	i
CC1CCc2c(sc(NC(=S)NC(=O)C(C)(C)C)c2C#N)C1 (stereo not given)	12%
CCc1ccc(OCc2nc(-c3ccc(Cl)cc3)no2)c(Br)c1	i
CCn1cc(C(=O)OCc2cccc(Br)c2)c(=O)c2ccc(C)nc21	i
CC(=O)NC(=S)Nc1ccc(NC(=O)Cc2ccccc2)cc1	i
CCOC(=O)c1ccc(NC(=S)Nc2cc([N+](=O)[O-])ccc2OC)cc1	42%
O=C(Nc1ccccc1Sc1ccccc1)c1ccc([N+](=O)[O-])cc1	i
COc1ccc(-n2c(C)c(C(C)=O)c(C(C)=O)c2C)cc1OC	i
Cc1cc(C)c(NC(=O)Cn2c3ccccc3c3nc4ccccc4nc32)c(C)c1	i
COc1ccc(Cl)cc1N(CC(=O)Nc1ccccc1C(=O)N1CCOCC1)S(C)(=O)=O	i
Cn1nc(C(=O)NCC2CCCO2)c2ccccc2c1=O (stereo not given)	i
COc1ccc(CC(=O)Nc2nnc(C(F)(F)F)s2)cc1OC	i
O=C(CSc1nnc(-c2cccnc2)n1-c1ccccc1)N1CCN(c2ccc(F)cc2)CC1	i
CCOc1ccc(NC(=O)C(C)Sc2nnc(NC(=O)CCc3ccccc3)s2)cc1 (stereo not given)	i
CC(=O)Nc1ccc(Oc2ncnc3scc(-c4ccc(C)cc4)c23)cc1	i
O=[N+]([O-])c1ccc(N2N=C(c3ccccc3)CC2c2ccc(O)cc2)cc1 (stereo not given)	44%
N=c1c(C(=O)NCCc2ccccc2)cc2c(=O)n3ccccc3nc2n1CCN1CCOCC1	i
The results go on:
SMILES	Mtb growth
Cc1ccccc1NC(=O)c1cc(S(=O)(=O)Nc2ccc(Cl)cc2)ccc1Cl	i
COC(=O)c1ccccc1NC(=O)C(=O)NCC1CCCO1 (stereo not given)	i
CN(C)C(=O)N1CCN(S(=O)(=O)c2cccc([N+](=O)[O-])c2)CC1	i
COc1ccc(Cl)cc1N(CC(=O)Nc1ccccc1-c1ccccc1)S(C)(=O)=O	i
COc1cccc(NC(=O)C2(c3ccc(OC)c(OC)c3)CCOCC2)c1	2%
Cc1sc(NC(=O)Cc2cccs2)c(C#N)c1C	i
CCCCOc1ccc(C(=O)NC(=S)Nc2cc(Cl)c(O)c(Cl)c2)cc1	i
O=C(Nc1ccc(Br)cc1F)c1ccc(Cl)c(Cl)c1	i
CCOC(=O)C1=C(O)/C(=C/c2ccc(OC)cc2)SC1=Nc1ccc(Cl)cc1	0%
O=C(Nc1ccc(C(=O)N2CCCC2)cc1)c1ccccc1F	i
CCn1c(SCC(=O)c2ccccc2)nnc1-c1ccc(C)c(Cl)c1	i
COc1cc2c(cc1OC)C(c1ccc(OCc3ccccc3)cc1)CC(=O)N2 (stereo not given)	i
O=C(NCCc1ccncc1)Nc1ccc(F)cc1	i
Cc1ccccc1CNC(=O)CN(c1ccc(C(C)C)cc1)S(C)(=O)=O	8%
CS(=O)(=O)N(c1ccccc1)C1CSC1	0%
COC(=O)c1ccc(NC(=O)Cn2cc(C=O)c3ccccc32)cc1	25%
NC(=O)C1CCN(C(=S)Nc2ccccc2Cl)CC1	i
O=C(Nc1ccccc1)Nc1ccc(Br)cc1F	3%
COc1ccccc1NC(=O)C(=O)NC1CC(C)(C)NC(C)(C)C1	i
CC(C)c1ccc(NCCC(=O)c2cccs2)cc1	6.3µg/mL*
COC(=O)c1cc(OC)c(OC)cc1NC(=S)Nc1cc(Cl)ccc1OC	i
CCOc1cc(C)c(Cl)cc1S(=O)(=O)N1CCC(C(N)=O)CC1	i
COc1ccc(N2C(=S)N(c3ccc(Cl)c(Cl)c3)C3CS(=O)(=O)CC32)cc1 (stereo not given)	0%
COc1cc(NC(=O)c2cc3ncc(Br)cn3n2)c(OC)cc1Cl	i
COc1ccc2oc(-c3ccc(OC)c(OC)c3)cc(=O)c2c1	i
O=C(NCC1COc2ccccc2O1)C(=O)NC1CCCCC1 (stereo not given)	i
O=C(CCN1C(=O)c2cccc3cccc(c23)C1=O)N1CCc2ccccc2C1	i
CCn1c(CNC(=O)c2cccc(C)c2)nnc1SCC(=O)Nc1cccc(C(=O)OC(C)C)c1	2%
O=C(CN1C(=O)c2cccc3cccc(c23)C1=O)NCC(O)c1ccccc1 (stereo not given)	i
COc1cccc(Nc2nc(N)nc(C(F)(F)F)n2)c1	1%
COC(=O)c1ccc2[nH]c(C)c(CN3CCOCC3)c(=O)c2c1	i
CN(C)c1ccc(/C=C/C=N/NS(=O)(=O)c2ccc(C(C)(C)C)cc2)cc1	1%
COc1ccc(-c2csc(NC(=S)NC(=O)c3ccc(C)cc3Cl)n2)cc1OC	12%
O=C1CN(c2ccccc2C(F)(F)F)C(=O)CN1c1ccccc1C(F)(F)F	i
Cc1ccc2c(Cl)c(C(=O)NC3=NCCS3)sc2c1	?
CC(C)C(=O)Nc1cc(C(F)(F)F)ccc1N1CCOCC1	i
COc1cc2c(cc1OC)C(c1ccccc1)=NC(C)(C)C2	12%
COc1cc(OC)c(C(=O)N2CCCc3ccccc32)cc1OC	0%
O=C(COC(=O)c1ccc2c(c1)-c1ccccc1C2=O)c1ccccc1	i
CCCCN(CCCC)C(=O)c1ccoc1C	i
C=CCOc1cc(Cl)c(C=O)cc1OC	i
